Ba CapD inh – blocks the Bacillus anthracis CapD enzyme; purified CapD enzyme, fluorescence intensity read-out; hits give low values; some hits fall short of the stated cut; z-score (no concentration beside the values); hit rate 0.23% among 140,000;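 active means z-score under -4 in either of two replicates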;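 further: stock transfer was 100 nL into about 40 µL; score is relative to mean and spread of the plate; one replicate is shown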
AID504770 – E. coli YBA685 growth inhibition, screen for V. cholerae RctB inhibitors. E. coli YBA685 rctB-dependent plasmid, OD600 growth, 3 h; hits give low values. hit rate 0.27% among 130,000. z-score (test concentration not listed);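 active means z-score under -2 on both plates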;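 further: wells of about 30 µL received 100 nL stock; score is relative to mean and SD of the test wells; the first replicate is given; strong numbers were not always called active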
Starred values were filed as active, the others as inactive; . = no result given.

SMILES | Ba CapD inh | AID504770
N#CC(=C=N)C1=C(C#N)C(c2ccccc2)CC(=O)N1 (configuration not stated) | -1.03 | .
COc1cc(S(=O)(=O)N2CCCCC2)ccc1N=Cc1c(C)[nH]n(-c2ccccc2)c1=O | 0.28 | 0.05
O=C(NCCN1CCN(c2nccc(C(F)(F)F)n2)CC1)c1ccc(Cl)cc1 | 6.48 | 1.05
CCOC(=O)C1(CC(=O)c2ccc(F)cc2)C(=O)Oc2ccccc2C1c1ccccc1 (configuration not stated) | -0.36 | -0.4
CCOC(=O)c1cc(-c2ccccc2)n(CCNC(=O)OC(C)(C)C)c1C | 11.7 | -0.05
N#Cc1c(N)nc2cccc3c2c1-c1ccccc1C3=O | 25.2 | .
CC(C)(C)C(=O)NCCc1nc2ccccc2[nH]1 | -0.6 | 1.25
COc1ccc(CNC(=O)C2CCC(Cn3c(=O)[nH]c4ccsc4c3=O)CC2)cc1 (configuration not stated) | -0.285 | 0.85
CC1CCCCN1S(=O)(=O)c1ccc(NC(=O)CSc2nc3ccccc3o2)cc1 (configuration not stated) | . | 0.65
CCCOc1ccc(C(=O)Nc2ccc(NC(=O)c3cccs3)cc2)cc1 | 0.025 | 0.2
CCOC(=O)c1c(C)[nH]c(C)c1C(=O)CSC1=Nc2ccccc2C2CC=NN12 (configuration not stated) | . | 0.25
CCOC(=O)COc1cccc(NC(=O)c2ccccc2Cl)c1 | -0.37 | -0.35
COc1ccc(S(=O)(=O)CC(=O)Nc2ccc(Cl)cc2Cl)cc1 | -0.285 | .
Nc1ccc(Oc2cccc3cccnc23)c(Cl)c1 | 0.315 | -0.05
COCCNC(=O)CCN1CCc2ccccc21 | 0.8 | .
O=C(Cc1coc(-c2ccc(F)cc2)n1)Nc1ccccc1 | 0.11 | -0.3
CC(=O)Oc1ccccc1C(=O)N1C(C)CCCC1C (configuration not stated) | -0.39 | -0.9
CCOC(=O)C1CCCN(C(=O)c2ccc3c(c2)[nH]c(=S)n2c4ccccc4nc32)C1 (configuration not stated) | -0.475 | .
Cc1ccc(CN2C(=O)c3c(C(C)C)nc4ccccc4c3C2=O)o1 | -0.84 | .
C=CCNC(=S)N1CCc2sccc2C1c1ccc(OC)cc1 (configuration not stated) | 0.82 | 0.1
Clc1cccc(N2CCN(CCNc3nc4ccccc4n4cnnc34)CC2)c1 | 0.22 | 2.35
Cc1cc(C)c2c(n1)sc1c2nnn2c3ccccc3nc12 | -0.275 | .
CCc1nn(CC(=O)NCCc2ccccc2)c(=O)c2cc3sccc3n12 | -0.545 | -2.25
O=C(COC(=O)c1cnccn1)c1ccc2c(c1)CCCC2 | -0.43 | -0.3
CCOC(=O)c1c(-c2ccccc2)csc1NC(=O)CCCC(=O)O | 2.12 | -1

Profiles, looked up by structure:
`Cc1ccc(CN2C(=O)c3c(C(C)C)nc4ccccc4c3C2=O)o1` as listed: Ba CapD inh: -0.84; AID504770: .
`N#CC(=C=N)C1=C(C#N)C(c2ccccc2)CC(=O)N1` (configuration not stated) as listed: Ba CapD inh: -1.03; AID504770: .
`Clc1cccc(N2CCN(CCNc3nc4ccccc4n4cnnc34)CC2)c1` as listed: Ba CapD inh: 0.22; AID504770: 2.35

Some values from the list.
CCOC(=O)COc1cccc(NC(=O)c2ccccc2Cl)c1 | Ba CapD inh: -0.37
Clc1cccc(N2CCN(CCNc3nc4ccccc4n4cnnc34)CC2)c1 | Ba CapD inh: 0.22
CCOC(=O)c1c(-c2ccccc2)csc1NC(=O)CCCC(=O)O | AID504770: -1

The main list resumes with the 4 entries that preceded the break.
SMILES | Ba CapD inh | AID504770
Cc1cc(C)c2c(n1)sc1c2nnn2c3ccccc3nc12 | -0.275 | .
CCc1nn(CC(=O)NCCc2ccccc2)c(=O)c2cc3sccc3n12 | -0.545 | -2.25
O=C(COC(=O)c1cnccn1)c1ccc2c(c1)CCCC2 | -0.43 | -0.3
CCOC(=O)c1c(-c2ccccc2)csc1NC(=O)CCCC(=O)O | 2.12 | -1
CCCc1cc(=O)[nH]c(SC/C(O)=C(\C#N)c2nc3ccccc3[nH]2)n1 | . | -0.6
CC1CCN(Cc2c(O)ccc3ccccc23)CC1 | 41.8 | -1.4
CSC1=NC2(CC(c3cccs3)c3ccc(O)c(O)c3O2)CC(C)(C)N1 (configuration not stated) | 0.09 | -0.5
CC(OC(=O)Cc1coc2cc3c(cc12)CCC3)C(=O)NCc1ccc2c(c1)OCO2 (configuration not stated) | . | 1.05
CCOC(=O)C1=C(N)OC2=C(C(=O)CC(C)(C)C2)C1c1cc(OC)c(OC)c(OC)c1 (configuration not stated) | -0.265 | .
COc1ccc(OCC(=O)Nc2ccc(N3CCN(S(C)(=O)=O)CC3)cc2)cc1 | . | 0.85
CN(C)c1ccc(CNCCC2(c3ccccc3)CCOC(C)(C)C2)cc1 (configuration not stated) | 0.88 | 1.05
O=C(NC1CCCC1)C(c1ccccc1)N(Cc1ccccc1F)C(=O)c1ccco1 (configuration not stated) | . | 1.2
O=C(NCCNC1CCCCC1)c1cccs1 | -0.405 | -0.7
COc1ccccc1OC(=O)C1CC(=O)N(c2ccc(Cl)cc2)C1 (configuration not stated) | -0.37 | -1.05
COC(=O)c1cccc(NC(=O)COC(=O)c2ccco2)c1 | . | -0.95
Cc1ccc(NC(=O)CSc2n[nH]c(=O)n2CC2CCCO2)cc1C (configuration not stated) | . | 1.7
COc1ccc(CN2C(=O)Cc3c2nc(N)c2c(N)nc(N4CCOCC4)c(C#N)c32)cc1 | . | 1.3
CCOC(=O)c1c(NC(=O)Cn2nnc3ccccc32)sc2c1CCC(C)C2 (configuration not stated) | . | 0
Cc1ccccc1N1C(=O)/C(=C/c2ccc([N+](=O)[O-])cc2)C=C1c1ccccc1 | 0.08 | .
N#Cc1c(N)n(-c2ccccc2)c2nc3ccccc3nc12 | 26.4 | 0.35
N#CC1=C(N)N2C(=C(C#N)C13CCCCC3)SC1CCCCC12O (configuration not stated) | 2.19 | .
O=C(O)C1CSC2c3ccccc3C(=O)N12 (configuration not stated) | . | 0.05
O=C1c2ccccc2-c2onc3ccc(Nc4ccccc4)c1c23 | -0.31 | .
Cc1ccc(OCCn2c(C(O)c3ccccc3)nc3ccccc32)cc1 (configuration not stated) | -0.22 | -0.25
CC(C)n1c(SCC(=O)Nc2ccccc2Cl)nc2cc(Cl)ccc21 | 0.225 | -0.7
Cc1ccsc1C(=O)Oc1cccc(F)c1 | . | -0.45
O=C1N(CN2CCC(Cc3ccccc3)CC2)c2ccccc2C12OCCO2 | 0.11 | .
Cc1ccc(S(=O)(=O)N2CCN(c3ncccc3C(F)(F)F)CC2)cc1 | 0.095 | .
O=C(Cc1cccs1)N1CCN(CCc2ccccc2)CC1 | -0.175 | -0.3
Continuation.
SMILES | Ba CapD inh | AID504770
COC(=O)CSc1nc(-c2ccccc2)c2cc(Cl)ccc2n1 | 1.23 | -0.7
S=c1c(Cl)c(Cl)cnn1Cc1ccccc1 | 0.19 | 0
C=CCNc1oc(-c2ccccc2)nc1C#N | 0.15 | -0.85
COc1ccc(NC(=O)c2sc3nc(-c4cccs4)cc(C(F)(F)F)c3c2N)cc1 | 0.21 | .
CC(c1ccccc1)n1c(CCCNC=O)nc2ccccc21 (configuration not stated) | 0.635 | 1.05
Cn1c(C(C#N)C(=O)Cc2cccc3ccccc23)nc2ccccc21 (configuration not stated) | 0.555 | -0.75
O=c1/c(=C\c2cccs2)sc2nc3ccccc3n12 | -0.925 | 1.55
CCSCCOC(=O)C1=C(C)NC2=C(C(=O)CC(C)(C)C2)C1c1ccc(OC)c(OC)c1OC (configuration not stated) | 22.6 | .
Oc1c(Cl)cc(Cl)cc1C1N(Cc2ccc(Cl)cc2)CCN1Cc1ccc(Cl)cc1 | 0.165 | .
O=C(/C=C/c1ccccc1)NC(=O)c1ccccc1O | . | 0.9
CCOC(=O)C1=CN(Cc2ccc(Cl)cc2)C=C(C(=O)OCC)C1c1cccc(OC)c1OC | 3.54 | .
O=C(O)/C=C/c1ccc(/C=N/NC(=O)c2ccccc2NC(=O)c2cccs2)cc1 | -0.27 | .
COc1cc2c(cc1OC)CN(C(=O)c1ccc(Cl)nc1)CC2 | . | 0
CC(C)(C)c1ccccc1OCC(=O)Nc1cccc2ccccc12 | -3.34 | 0.25
COc1cccc(/C=C2\SC(=O)N(CNc3cccc(Br)c3)C2=O)c1 | -0.715 | .
COc1ccc(CN2CCN(c3ncnc4sc(C)c(C)c34)CC2)c(OC)c1OC | -0.295 | .
CN(Cc1ccccc1)C(=O)COC(=O)c1c2c(nc3ccccc13)CCC2 | 8 | 1.15
COc1ccc(NC(=O)c2sc(SC)cc2-c2ccc(Cl)cc2)cc1 | -0.75 | .
O=C(NCCCn1ccnc1)c1ccccc1NS(=O)(=O)c1ccc(Cl)cc1 | 0.68 | 1.8
Cc1ccc(SCC(=O)Nc2cccc3nsnc23)c(C)c1 | . | -0.55
CC(OC(=O)c1cc(S(=O)(=O)N2CCOCC2)ccc1F)C(N)=O (configuration not stated) | . | 0.2
CC(C)(C)OC(=O)NCc1n[nH]c(=S)n1C1CC1 | -0.035 | .
CCN(CC)C(=O)c1cccc(NC(=O)c2cc(-c3ccco3)nc3ccccc23)c1 | . | 0.35
COc1cc2c(cc1NC(=O)COC(=O)C1CC(=O)N(Cc3ccco3)C1)oc1ccccc12 (configuration not stated) | . | -0.65
Cc1cc(/C=C(\C#N)C(=O)N2CCn3c2nc2ccccc23)c(C)n1-c1cccc(C(F)(F)F)c1 | . | 0.15
(next part)
SMILES | Ba CapD inh | AID504770
O=C(NC1CCCCC1)c1nc(-c2cccc(C(F)(F)F)c2)no1 | -0.465 | -0.55
O=[N+]([O-])/C=C/c1c(Cl)cccc1Cl | -0.53 | .
COc1cc(C(=O)c2cc(Cl)ccc2N)cc(OC)c1OC | 0.125 | 1.15
Cc1ccc(C)n1-c1sccc1-c1cc2nccc(-c3ccc(F)cc3)n2n1 | 0.27 | .
CCOC(=O)C1=CN(Cc2ccc(F)cc2)C=C(C(=O)OCC)C1c1ccc(Cl)c([N+](=O)[O-])c1 | 0.115 | .
COc1cccc(/C=N/NC(=O)COc2ccccc2Cl)c1[N+](=O)[O-] | -0.855 | .
Cc1ccccc1-n1c(=O)c(C#N)cc2c(=O)n3ccccc3nc21 | 87.6 | 0.3
CN1C(C)(C)CCCC1(C)C | -0.27 | 0.5
O=C(OCCCCN1C(=O)c2ccccc2C1=O)c1ccc(-n2cnnn2)cc1 | . | -0.35
N#C/C(=C\C1CC2C=CC1C2)c1nc2ccccc2[nH]1 (configuration not stated) | 2.6 | 0.45
O=C(NCCSCc1ccco1)Nc1cccc(Cl)c1 | -0.23 | .
CCCS(=O)(=O)Nc1cc2oc3ccccc3c2cc1OC | . | -0.25
CCOC(=O)N1CCC(c2nc3ccccc3[nH]2)CC1 | 6.75 | -0.65
COc1ccc(SCC(=O)N(C2CCCCC2)C2CCS(=O)(=O)C2)cc1 (configuration not stated) | . | 0.35
COC(=O)COc1ccc(/C=C2\SC(=O)N(Cc3ccc(Cl)cc3)C2=O)cc1OC | 6.63 | .
CC(C)(C)S(=O)(=O)c1ccc(S(=O)(=O)C(C)(C)C)s1 | 0.055 | 0.85
CCc1cccc(NC(=O)NC(=O)Cn2nnc(C(=O)OC)c2C(=O)OC)c1 | -0.125 | 0.4
CCN1CCOC(CC(=O)Nc2cccc(OC)c2)C1=O (configuration not stated) | -0.84 | -0.65
CCOC(=O)Cc1nnc(C2CC(=O)N(c3ccccc3)C2)o1 (configuration not stated) | 0.06 | -0.15
O=C(OCc1ccccc1)C1CCCN1C(=O)OCc1ccccc1F (configuration not stated) | -1.09 | .
N#CNC1=NCN(CC2CCCO2)CN1 (configuration not stated) | . | 0.15
CC1=NN(C(=O)Cc2ccccc2)C(O)(c2ccccc2)C1 (configuration not stated) | -0.475 | 1.7
CCOc1ccc(-c2cc3[nH]c(=O)n(-c4ccccc4C(F)(F)F)c(=O)c3s2)cc1 | 0.15 | 0.15
O=C(NNc1ccccc1Cl)C(O)(c1cccc(C(F)(F)F)c1)c1cccc(C(F)(F)F)c1 | -0.08 | .
Cc1cc(SCC#N)c(C)cc1Cl | -0.435 | .

Of the compounds above, these contain a COOH group:
SMILES | Ba CapD inh | AID504770
CCOC(=O)c1c(-c2ccccc2)csc1NC(=O)CCCC(=O)O | 2.12 | -1
O=C(O)C1CSC2c3ccccc3C(=O)N12 (configuration not stated) | . | 0.05
O=C(O)/C=C/c1ccc(/C=N/NC(=O)c2ccccc2NC(=O)c2cccs2)cc1 | -0.27 | .

The list goes on:
SMILES | Ba CapD inh | AID504770
CCCSc1nc2c([nH]c3ccccc32)c(=O)n1-c1ccccc1 | -0.19 | 1.9
COc1ccc(C2C3=C(CC(C)(C)CC3=O)Nc3ccc4ccccc4c32)cc1OC (configuration not stated) | 96.4 | .
COc1cc(C2CC(C(F)(F)F)n3ncc(C(=O)Nc4cc(Oc5ccc(F)cc5)cc([N+](=O)[O-])c4)c3N2)cc(OC)c1OC (configuration not stated) | 0.115 | .
O=C(NCC1(c2ccccc2)CCCC1)c1noc2c1COc1ccccc1-2 | 1.27 | -0.3
COc1ccc(NC(=O)N2CCN(C3CCCCC3)CC2)c(OC)c1 | -1.36 | 2.25
O=C(CC1SC(=Nc2cccc(F)c2)NC1=O)Nc1cc(Cl)ccc1Cl (configuration not stated) | 0.085 | .
CC(=O)N1N=C(c2ccco2)CC1c1cc2cccc(C)c2nc1Cl (configuration not stated) | . | -0.1

Compound activity as filed in PubChem BioAssay.
